Vaccinia Venus = qHTS for Stage-Specific Inhibitors of Vaccinia Orthopoxvirus: Venus Reporter Primary qHTS; Vaccinia virus Venus reporter expression, fluorescence; Potency, µM (highest dose often 36.5 µM), for inactives: at the top dose activity change, negative = inhibition, usual class: inhibitors; actives 0.46% (n = 330,000); active means well fitted inhibition curve with a large enough effect; inconclusive means small, poorly fitted or top-dose-only effect; inactive means no such curve, though single readings can be large or run the other way; tested in A549 cells; further: nearly all actives have a fitted effect of over 30% in size; inactives centre near -10
VACV mCherry inh = qHTS for Stage-Specific Inhibitors of Vaccinia Orthopoxvirus: mCherry Reporter Primary qHTS | Vaccinia virus mCherry reporter infection, fluorescence; about a quarter of the inactives have no number | Potency, µM (top dose mostly 36.5 µM), for the others: at the highest dose activity change, negative = inhibition, actives largely listed as inhibitors | actives 0.63% (n = 310,000) | AID 720579, 2013; active = well fitted inhibition curve with a large enough effect; inconclusive = small, poorly fitted or top-dose-only effect; inactive = no such curve, though single readings can be large or run the other way; tested in A549 cells; further: nearly all actives have a fitted effect of over 35% in size; inactives centre near -10
An asterisk follows results filed as active; i = inactive; ? = inconclusive; . = no result given; & = joins results of further samples; [ ] = remark or other dose. On the % scale 0 is the no-effect control and ±100 the full control effect; potency means the concentration at half of the fitted maximal effect. Hits appear at their usual frequency; about 0.87% have a hit in one of these screens.

SMILES	Vaccinia Venus	VACV mCherry inh
COc1cc(/C(=C/c2ccccc2)c2ccccc2)c2c(c1)oc1ccccc12	-3%&-14%	i
Cn1cccc1Cc1nnc(SCC(=O)NCc2ccccc2)n1-c1ccc(F)cc1	-2%	-5%
Cc1cc(C)c(C)c(S(=O)(=O)N2CCN(C(=S)NCC3CCCO3)CC2)c1C (stereo unspecified)	-24%	?
COc1ccc(C2OCC3(O)C(c4ccc(OC)c(OC)c4)OCC23)cc1OC (stereo unspecified)	-8%	i
Cc1nc(-c2ccc3c(c2)OCCO3)cs1	-8%	i
O=C(Nc1nc2ccccc2s1)C1CCN(C(=O)c2ccco2)CC1	-10%	-9%
O=C(c1ccco1)N1CCN(c2cccc(Cl)c2)CC1	-17%	-1%
COc1ccc(NC(=O)c2cc(CC(C)C)on2)cc1OC	-11%	1%
CS(=O)(=O)N1CCN(C(=N)N[N+](=O)[O-])CC1	-5%	-29%
NC(=O)c1cc(S(=O)(=O)NCCc2ccc(Cl)cc2)cs1	-3%	i
O=C(CCN1CCOCC1)NNC(=O)Nc1cccc(C(F)(F)F)c1	-27%	?
CCCc1ccc(C(O)c2ncc(-c3ccccc3C)[nH]2)cc1 (stereo unspecified)	-7%	-3%
CN(C)C(/C=C/Nc1ccc(Br)cc1)=C(C#N)C#N	12%	6%
O=C1CCCN1c1ccc(S(=O)(=O)Oc2cccc(Cl)c2)cc1[N+](=O)[O-]	-26%	.
CCN1CC(CN(C)Cc2nc(-c3cccs3)no2)CC1=O (stereo unspecified)	-4%	i
NC1=NOC(=O)C1C1CCCCC1 (stereo unspecified)	-7%	i
COc1cc2c(cc1OC)C1=NC(=O)CN1C(SCc1ccc(C)cc1)=N2	-10%	-17%
O=C1COc2ccc(C(=O)NCc3ccc4c(c3)OCO4)cc2N1	-10%	9%
NS(=O)(=O)c1cc(C(=O)NCCOc2ccccc2)c(Cl)cc1Cl	-26%	-12%
CC(C)CCn1nnnc1C(c1ccccc1F)N1CCC(C(N)=O)CC1 (stereo unspecified)	-14%	-20%
CCOC(=O)c1nnn2c1nc(N1CCCCC1)c1ccccc12	-4%	i
O=C(Nc1ccc2c(c1)OCO2)c1cc(C2CCCCN2S(=O)(=O)Cc2ccccc2)on1 (stereo unspecified)	-14%	i
CCOC(=O)c1cc(-c2ccccc2)sc1NC(=O)C(C)OC(=O)c1ccncc1 (stereo unspecified)	-8%	-13%
COCCN(CC(=O)Nc1cccc(C)c1C)C(=O)Cc1sc(C)nc1-c1ccc(F)cc1	-8%	-7%
COc1ccccc1C(=O)NNC(=O)c1ccc2ccccc2c1O	-10%	?
O=C(NCc1cccs1)c1ccc(CSc2nc3ccncc3n2Cc2cccc(F)c2)cc1	?	?
CCCCn1nc2cc(C(=O)NCc3ccccc3)ccc2c1OCC	-19%	-14%
O=C(OCC(=O)N(C1CCCCC1)C1CCCCC1)c1ccco1	-5%	-15%
O=C(NNc1ccc(C(F)(F)F)cc1[N+](=O)[O-])c1ccc(NS(=O)(=O)c2ccc(F)cc2)cc1	?	?
Cc1ccc(NC(=O)Cn2nnc(C(=O)Nc3ccc(F)c(Cl)c3)c2N)cc1	-25%[7.34 µM]	i[7.34 µM]
CC(Sc1nncn1C)C(=O)Nc1ccc2ccccc2c1 (stereo unspecified)	-8%	-6%
COc1cc(NC(=O)c2cccs2)c(C(=O)OCC(=O)NCc2ccccc2)cc1OC	-1%	-8%
CCOc1ccccc1N(CC(=O)NCC1CCCO1)C(=O)CCC(=O)Nc1nccs1 (stereo unspecified)	-5%	1%
O=[N+]([O-])c1ccc(Cl)cc1NCc1cccnc1	-22%	-4%
CC(=O)c1nnn(-c2ccc([N+](=O)[O-])cc2)c1C	8%	?
CCOC(=O)CCS(=O)(=O)c1nc(-c2ccccc2)cc(C(F)(F)F)n1	?	11µM*

Taken from the listing (5 entries):
SMILES	Vaccinia Venus	VACV mCherry inh
O=C(NCc1cccs1)c1ccc(CSc2nc3ccncc3n2Cc2cccc(F)c2)cc1	?	?
CCCCn1nc2cc(C(=O)NCc3ccccc3)ccc2c1OCC	-19%	-14%
O=C(OCC(=O)N(C1CCCCC1)C1CCCCC1)c1ccco1	-5%	-15%
O=C(NNc1ccc(C(F)(F)F)cc1[N+](=O)[O-])c1ccc(NS(=O)(=O)c2ccc(F)cc2)cc1	?	?
Cc1ccc(NC(=O)Cn2nnc(C(=O)Nc3ccc(F)c(Cl)c3)c2N)cc1	-25%[7.34 µM]	i[7.34 µM]

(more compounds)
SMILES	Vaccinia Venus	VACV mCherry inh
CCOC(=O)C1=C(c2ccccc2)N=C2SCC(=O)N2C1c1cccc(OC)c1 (stereo unspecified)	2%	.
Cc1nc(Nc2ccc(S(N)(=O)=O)cc2)sc1C(=O)Nc1ccccc1	-12%	-29%
CC(=O)/C=C(\C)Nc1ccc(-c2cnc(-c3ccccc3)o2)cc1	9%	-25%
COC(=O)Cc1c(C)c2cc3c(c(C)c2oc1=O)OCN(CCc1ccccc1F)C3	-11%	-7%
O=C(c1ccccc1NS(=O)(=O)c1ccc(Br)cc1)N1CCOCC1	-14%	i
Cc1sc2ncn(CC(=O)N3CCN(c4ccccc4)CC3)c(=O)c2c1S(=O)(=O)N1CCN(c2ncccn2)CC1	-11%	-11%
O=C(C[n+]1ccccc1Br)c1ccc2c(c1)CCCC2	-8%	-15%
COc1ccc(NC(=O)C2CCCN(S(C)(=O)=O)C2)cc1Cl (stereo unspecified)	-24%	i
O=C(COC(=O)Cc1ccsc1)Nc1ccc(S(=O)(=O)N2CCOCC2)cc1	-20%	i
N#Cc1cn(CCOc2ccc(F)cc2)c2ccccc12	-20%	.
O=C(c1cc2c(ccc3ccccc32)o1)N1CCCCC1	-14%	-22%
CCOc1ccc(NC(=O)CNC(=O)c2ccc(OC)cc2)cc1	-13%	-5%
CCOC(=O)C1CCN(C(=O)c2ccc(Oc3cc(Cl)cc(Cl)c3)o2)CC1	-6%	-6%
Cc1ccc(NC(=O)Cn2c([N+](=O)[O-])cnc2C)cc1Cl	-14%	i
CC1(O)N(CCC(=O)Nc2cccc(F)c2)C(=O)OC12CCCCC2 (stereo unspecified)	-12%	-8%
CCOc1ccccc1N1CCN(C2=C(NS(=O)(=O)c3cccs3)C(=O)c3ccccc3C2=O)CC1	?	.
O=C(O)CCCN=CC1=C(O)C(C(=O)c2ccccc2)CCC1=O (stereo unspecified)	-15%	-2%
CCCCc1nc2c(C)c(N)cnc2n1Cc1cccc([N+](=O)[O-])c1	-20%	?
O=C(NCc1cccc(Cl)c1)c1cc(COc2ccc3ncccc3c2)on1	-22%	?
C=CCN=C1NN=C(c2cc(C)n(CCOC)c2C)CS1	-5%	-2%
CCn1c(CNC(C)=O)nnc1SCC(=O)c1ccc(Br)cc1	-9%	-7%
Cc1ccc(S(=O)(=O)N(CC(=O)Nc2ccc3c(c2)OCO3)c2ccc(C)c(Cl)c2)cc1	-9%	-6%
CC1(c2ccccc2Cl)NC(=O)N(CC(=O)N2c3ccccc3NC(=O)C2(C)C)C1=O (stereo unspecified)	-11%	-2%
Cc1ccc(C)c(N(CC(=O)NC2CCCC2)C(=O)CCC(=O)Nc2cc(C)on2)c1	-14%	1%

Reprinted from the part before: three compounds, then new ones.
SMILES	Vaccinia Venus	VACV mCherry inh
Cc1ccc(S(=O)(=O)N(CC(=O)Nc2ccc3c(c2)OCO3)c2ccc(C)c(Cl)c2)cc1	-9%	-6%
CC1(c2ccccc2Cl)NC(=O)N(CC(=O)N2c3ccccc3NC(=O)C2(C)C)C1=O (stereo unspecified)	-11%	-2%
Cc1ccc(C)c(N(CC(=O)NC2CCCC2)C(=O)CCC(=O)Nc2cc(C)on2)c1	-14%	1%
Cc1cccc(C(=O)OCC(=O)N2CCCC2=O)c1O	-4%	-12%
Fc1ccc2cnc(-c3ccccc3F)cc2c1	-6%	i
CCOc1ccc(NC(=O)CSc2nnc(-c3cc(C)[nH]n3)n2N)cc1	-4%	-11%
COc1cc(/C=N\NC(=O)C(C)(C)O)ccc1OC/C=C/c1ccccc1	-16%	?
COc1ccc(OC)c(N2C(=O)CCCC2=O)c1	4%	-6%
COc1ccc(Nc2oc(-c3ccc(COc4ccccc4C)o3)nc2C#N)cc1	-25%	-26%
CCc1ccc(CNC(=O)C2Cc3cc(S(=O)(=O)N4CCCCCC4)ccc3N2C(C)=O)cc1 (stereo unspecified)	?	?
O=C(N/N=C/c1ccc(Br)cc1)c1ccc(F)cc1	-8%	-9%
O=C(Nc1ccc(NC(=O)c2cccs2)cc1)c1ccc2c(c1)OCO2	-6%	0%
Cc1cc(Cl)ccc1OC(C)C(=O)NN1C(=O)c2ccccc2C1=O (stereo unspecified)	-5%	i
Cc1noc(C)c1COc1ccc(C(=O)NCc2ccccn2)cc1	-1%	-3%
O=C(Cc1cc(=O)oc2cc(O)ccc12)N[C@@H](Cc1c[nH]c2ccccc12)C(=O)O	-10%	i
CN(Cc1ccccc1)C(=O)c1cc2cc(F)ccc2[nH]1	-19%	-6%
O=C(Nc1ccc(F)cc1)C1(S(=O)(=O)c2ccc(Cl)cc2)CC1	-1%	-30%
CCC(=O)N1c2ccc(S(=O)(=O)CCC(=O)N3CCN(c4ccc(F)cc4)CC3)cc2CC1C (stereo unspecified)	-6%	-7%
O=C(Nc1cnns1)Oc1ccccc1	-12%	-13%
COc1ccc(-n2c(SCC#N)nc3c(sc(=S)n3-c3ccccc3)c2=O)c(OC)c1	-22%	-14%
O=C1OC(Sc2ccccc2)(c2ccccc2)c2ccccc21 (stereo unspecified)	-4%	-11%
CCc1ccc(-c2csc(NC(=O)C3CCCO3)c2C(=O)OC(C)C)cc1 (stereo unspecified)	-6%	-10%
CC1CC(C)CN(c2ncc3c(n2)CC(c2ccccc2)CC3=O)C1 (stereo unspecified)	-15%	.
CCOc1ccc(N(Cc2nnc3n2CCCCC3)C(=O)Nc2cccc(C)c2)cc1	-1%	-11%
COc1ccccc1C1C(C(N)=O)=C(C)Nc2nc(SCc3ccccc3F)nn21 (stereo unspecified)	-11%	-12%
O=C(COC(=O)c1cc(-c2cccs2)nc2ccccc12)c1ccccc1	9%	-9%
Cc1cc([N+](=O)[O-])ccc1NC(=O)CN1C2CCC1CC(NC(=O)NC13CC4CC(CC(C4)C1)C3)C2 (stereo unspecified)	-27%	i

Complete entries from above. Order of screens: Vaccinia Venus | VACV mCherry inh
Record of `CCOc1ccc(N(Cc2nnc3n2CCCCC3)C(=O)Nc2cccc(C)c2)cc1` : -1% | -11%
Record of `O=C(Nc1ccc(F)cc1)C1(S(=O)(=O)c2ccc(Cl)cc2)CC1` : -1% | -30%
Record of `O=C1OC(Sc2ccccc2)(c2ccccc2)c2ccccc21` (stereo unspecified) : -4% | -11%

Carrying on:
SMILES	Vaccinia Venus	VACV mCherry inh
O=C(O)CC(C(=O)OCCOc1ccccc1)N1CCOCC1 (stereo unspecified)	-5%	-7%
COC(=O)c1ccc2ncccc2c1	-23%	-19%
CCOc1ccccc1C(=O)NCc1ccc2c(c1)OCO2	-16%	-2%
O=C(CS(=O)(=O)c1cccc2nsnc12)Nc1ccc(F)cc1	9%	0%
CCCCCCCCCn1ccc(=N)cc1	?	-17%
NS(=O)(=O)c1ccc(Nc2nc(-c3cccc([N+](=O)[O-])c3)cs2)cc1	-12%	?
Nc1c(-c2nn[nH]n2)cnn1-c1cc(Cl)cc(Cl)c1	-1%	-10%
CCCn1c(C(C)Nc2nc(-c3ccc(Cl)c([N+](=O)[O-])c3)cs2)nc2ccccc21 (stereo unspecified)	-8%	-15%
Cc1ccc(C(=O)NC(=S)N2CCN(C)CC2)cc1	-6%	-10%
CCc1ccccc1NC(=O)CNC(=O)CNC(=O)Cc1ccccc1	-19%	-9%
COc1ccccc1C1CN(CCNC(=O)c2ccccc2Cl)Cc2ccccc2O1 (stereo unspecified)	-16%	i
O=C(O)Cn1c(=O)c(F)cn(C2CCCO2)c1=O (stereo unspecified)	3%	13%
CCC1(O)CC(C(=O)OC)=NN1C(=O)c1ccccc1 (stereo unspecified)	-4%	-12%
CC(=O)NCCc1nc(-c2ccc(Cl)cc2)no1	-5%	-26%
C=CCNC(=O)COCc1cc(-c2ccc3c(c2)OCO3)on1	-6%	1%
O=C(Oc1ccc(/C=N/n2cnnc2)cc1)c1cccc([N+](=O)[O-])c1	4%	4%
Cc1cc(C)n(-c2nc(C)c(C)c(=O)n2CC(=O)Nc2ccc([N+](=O)[O-])cc2)n1	-6%[7.34 µM]	-9%[7.34 µM]
CCOc1ccc(NC(=O)c2sc3nc4n(c(=O)c3c2C)CCCC4)cc1	-11%	-7%
COc1ccc(CNC(=O)CN=C2NC(=O)C(c3ccccc3)(c3ccccc3)N2)cc1	-10%	i
CC(=O)OC(C)C(=O)NS(=O)(=O)c1ccc(C)cc1 (stereo unspecified)	-13%	i
COc1cccc(N2CCN(C(=O)NC3CCCCC3)CC2)c1	-8%	.
COc1cccc(N2CCN(C(=O)c3cnc4c(-c5ccccc5)c(C)nn4c3C)CC2)c1	-4%	-2%
COc1cccc(CN2CCSCC2)c1OC	9%	i
Nc1nc2ccccc2n1C(=O)c1cccs1	-20%	-16%
Cc1nc2c(-c3ccccc3)c(C)nn2c(C)c1CCC(=O)NC(C)c1ccccc1 (stereo unspecified)	-11%	0%
O=C(O)CC/C(=N\NC(=O)CNC(=O)/C=C/c1ccccc1)c1ccccc1	0%	i
COc1ccc(N(CC(=O)N/N=C/c2cccs2)S(=O)(=O)c2ccc(OC)c(OC)c2)cc1	-11%	i
CCCCN(CC(=O)NCCOC)C(=O)Cn1nnc2ccccc21	-8%	-2%
CC(C)Cn1c(=O)c2ccccc2c2ccccc2c1=O	-7%	-6%
CCCCCOc1ccc(C(=O)NCC(=O)NCC(=O)OCC)cc1	-27%	.
Cc1ccc2oc(-c3ccc(NC(=O)COc4ccccc4)cc3O)nc2c1	-24%	-27%
